KCNQ2 inh: KCNQ2 potassium channel inhibitors, primary screen, cell-based, CHO-K1, FluxOR thallium flux, B-score (AID 2156); B-score at 10 µM; Potassium voltage-gated channel subfamily KQT member 2 (Rattus norvegicus), O88943; 20 min; hits give low values; only compounds with negative scores are shown here; some inactives read as strong as hits; 310,000 compounds, 1.1% hits;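 active = fluorescence ratio B-score at most minus 3 library SDs, with starting brightness B-score within 2 library SDs, cut at about -5.5 in these data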
Target sequence (O88943 whole entry, looked up): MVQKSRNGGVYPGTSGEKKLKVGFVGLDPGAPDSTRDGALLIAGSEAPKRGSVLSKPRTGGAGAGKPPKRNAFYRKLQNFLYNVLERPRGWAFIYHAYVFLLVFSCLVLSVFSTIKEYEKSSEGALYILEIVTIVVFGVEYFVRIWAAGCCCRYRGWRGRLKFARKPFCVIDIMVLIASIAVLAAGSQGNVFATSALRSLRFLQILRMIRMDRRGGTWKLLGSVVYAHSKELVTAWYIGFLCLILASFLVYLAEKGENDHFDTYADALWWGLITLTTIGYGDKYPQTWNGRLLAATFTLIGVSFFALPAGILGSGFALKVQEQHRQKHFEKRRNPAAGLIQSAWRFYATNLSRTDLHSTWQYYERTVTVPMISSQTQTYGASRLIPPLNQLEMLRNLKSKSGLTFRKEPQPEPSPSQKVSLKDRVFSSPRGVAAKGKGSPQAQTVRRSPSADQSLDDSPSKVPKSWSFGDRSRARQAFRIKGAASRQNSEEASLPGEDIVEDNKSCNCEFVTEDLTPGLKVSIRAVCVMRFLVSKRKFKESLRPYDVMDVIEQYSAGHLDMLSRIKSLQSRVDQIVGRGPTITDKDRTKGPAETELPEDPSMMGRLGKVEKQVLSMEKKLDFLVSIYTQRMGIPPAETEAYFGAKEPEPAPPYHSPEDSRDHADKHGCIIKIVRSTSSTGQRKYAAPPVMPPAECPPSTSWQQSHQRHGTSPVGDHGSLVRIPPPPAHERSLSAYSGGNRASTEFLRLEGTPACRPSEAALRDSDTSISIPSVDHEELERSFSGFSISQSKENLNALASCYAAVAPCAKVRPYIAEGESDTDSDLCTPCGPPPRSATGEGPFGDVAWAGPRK
KCNQ2 inh baseline: further read-out of KCNQ2 inh, marked with its call; B-score; measured here: initial fluorescence intensity artifact check;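 brightness before thallium and not channel activity; 0 = typical well and far values either way flag optical interference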
* marks the source's active call; other numbers are inactive results; i = inactive.

SMILES	KCNQ2 inh	KCNQ2 inh baseline
O=C(NC(Cc1ccccc1)C(=O)O)c1ccccc1 (stereo not given)	i	-0.01
O=C1CCCCCN1CP(=O)(O)CCc1ccccc1	i	1.4
N#Cc1cnc(SCC(=O)NNC(=O)COc2cccc3ccccc23)nc1N	i	2
Cc1ccc(S(=O)(=O)n2ccc3c(OCCOCCSCC(NC(=O)OC(C)(C)C)C(=O)O)cccc32)cc1 (stereo not given)	i	-1.2
C=CCN(c1ccccc1)S(=O)(=O)c1cccc(C(=O)N2CC(C)CC(C)C2)c1 (stereo not given)	i	1.1
O=C(CSc1nc2ccccc2[nH]1)NCc1ccc(F)cc1	i	-0.19
COc1c2c(nc3ccccc13)OC(C(C)(O)CO)C2 (stereo not given)	i	2.6
CC(C)NS(=O)(=O)c1ccc(NC(=S)NC(=O)c2ccc(-c3ccccc3)cc2)cc1	i	0.55
CCN(c1ccccc1)S(=O)(=O)c1cccc(C(=O)NCC(c2ccco2)N2CCCC2)c1 (stereo not given)	i	0.96
CCCCN(C)C(=O)c1cn(C)c2ccc(S(=O)(=O)N(C)C)cc2c1=O	i	-1.6
CN(CC(=O)Nc1cc(Cl)cc(Cl)c1)Cc1cccs1	-5.6*	-0.14*
CN1CCN(c2nc(-c3cc4ccccc4o3)cs2)CC1	i	-1.8
CC(=O)Nc1cc(-c2ccccc2)nn1Cc1ccc(Cl)cc1	i	0.71
COc1cccc(OCc2cc(C(=O)N(C)C3CC(C)(C)NC(C)(C)C3)no2)c1	i	1.5
O=c1[nH]c([N+](=O)[O-])nn1C(c1ccccc1)c1ccccc1	i	1.3
CCOc1ccc(CN(C)CC(=O)Nc2cc(OC)c([N+](=O)[O-])cc2C)cc1	i	1
C[C@H](NC(=O)OC(C)(C)C)C(=O)N/N=C/C1=Cc2ccccc2OC1	i	1.8
COc1ccc(C(=O)CSc2nnc(Cn3nnc4ccccc43)n2C)cc1	i	-0.27
CCOC(=O)c1ccccc1NC(=O)Cn1cnc2c1c(=O)n(C)c(=O)n2C	i	1.3
O=C(Cn1cnc2c(nnn2Cc2ccc(F)cc2)c1=O)N1CCN(c2ccccc2)CC1	i	2.1
NC1=NS(=O)(=O)NC1c1ccc(Br)cc1 (stereo not given)	i	1.1
OCCCn1c(-c2ccccc2)csc1=Nc1ccccc1	i	-0.52
COC(=O)c1cc2n(n1)CCN(Cc1ccc(C)cc1)C2=O	i	-0.77
CC(C)CC(=O)NC(=S)Nc1cccc2nsnc12	i	-1.2
O=C(CCC1CCCCC1)Nc1ccc(C(=O)c2ccncc2)cc1	i	1.8
c1ccc(OCCCCN2CCOCC2)cc1	i	-1.5
O=C(NC1CCCC1)C(c1cccnc1)N(C(=O)c1ccco1)c1cccc(F)c1 (stereo not given)	i	-0.34
CC(=O)Nc1ccc(S(=O)(=O)N2CCC(c3nc4ccccc4[nH]3)CC2)cc1	i	-0.22
Cc1c(NC(=O)C(Sc2ccccc2)c2ccccc2)cccc1[N+](=O)[O-] (stereo not given)	i	0.29
CCC1Oc2ccccc2N(CC(=O)NCCC2=CCCCC2)C1=O (stereo not given)	i	1

Two of the compounds above, field by field:
> NC1=NS(=O)(=O)NC1c1ccc(Br)cc1 (stereo not given)
  KCNQ2 inh: i
  KCNQ2 inh baseline: 1.1
> OCCCn1c(-c2ccccc2)csc1=Nc1ccccc1
  KCNQ2 inh: i
  KCNQ2 inh baseline: -0.52

Next records follow.
SMILES	KCNQ2 inh	KCNQ2 inh baseline
CC1CCCC(C)N1C(=O)c1ccc(CS(=O)(=O)c2ccccc2)cc1 (stereo not given)	i	-1.1
O=C(COC(=O)c1ccccc1C(=O)c1ccc(Cl)cc1)NCCc1ccccc1	i	-0.93
COc1cc(OC)cc(C(=O)N[C@H](C(=O)Nc2nc(-c3ccc(OC)c(OC)c3)cs2)C(C)C)c1	i	0.42
O=C(O)C1=NN(c2ccccc2)C(=O)CC1	i	1.6
CN1CCc2c(sc3c2C(=O)NC(c2ccccn2)N3)C1 (stereo not given)	i	5.6
CCc1nc2ccc(C(=O)N3CCN(c4ccccc4)CC3)cc2nc1CC	i	-2.6
Cc1ccccc1NC(=O)c1sc(NC(=O)COc2ccccc2)c(C#N)c1C	i	1.3
O=C(CN1CCOCC1)NC1CC2CCC1C2 (stereo not given)	i	-0.73
CC(=O)Nc1ccc(N(C(=O)c2ccco2)C(C(=O)NC2CCCC2)c2ccc(N(C)C)cc2)cc1 (stereo not given)	i	0.49
O=C(Cn1c2ccc(F)cc2c2nc3n(c(=O)c21)CCS3)N1CCCC1	i	1.6
Brc1cccc(/C=N/Nc2nc(N3CCCCC3)nc(N3CCCCC3)n2)c1	-6.9*	1.9*
CCOC(=O)/C=c1\s/c(=C\c2ccc(C(F)(F)F)cc2)c(=O)n1CC(=O)NCc1ccco1	i	-0.02
O=C1N(Cc2ccccc2)c2ccccc2C12OCCO2	i	0.42
CC1CCCN(Cc2c(O)ccc3c4c(c(=O)oc23)CCCC4)C1 (stereo not given)	i	0.26
Cc1cc(C)n(CC(=O)N2CCCC(N3CCN(c4ccccc4C)CC3)C2)n1 (stereo not given)	i	-2.1

Entries of single compounds, quoted from the list:
Record of CN(CC(=O)Nc1cc(Cl)cc(Cl)c1)Cc1cccs1 : KCNQ2 inh: -5.6*; KCNQ2 inh baseline: -0.14*
Record of Cc1c(NC(=O)C(Sc2ccccc2)c2ccccc2)cccc1[N+](=O)[O-] (stereo not given) : KCNQ2 inh: i; KCNQ2 inh baseline: 0.29
Record of CC(C)CC(=O)NC(=S)Nc1cccc2nsnc12 : KCNQ2 inh: i; KCNQ2 inh baseline: -1.2

Next results.
SMILES	KCNQ2 inh	KCNQ2 inh baseline
O=C(NCCO)C(=O)Nc1cc2c3c(c1)CC(=O)N3CCC2	i	-0.25
Cc1ccc(/C(O)=C2/C(=O)C(=O)OC2c2ccc(Cl)cc2)cc1 (stereo not given)	i	-0.79
O=C1C(Cl)=C(Nc2ccc(F)cc2)C(=O)N1CCc1ccccc1	i	-0.35
COc1ccc(OC)c(N(CC(=O)N2CCN(Cc3ccccc3)CC2)S(C)(=O)=O)c1	i	-0.04
COc1ccc(-n2c(COc3cccc4ccccc34)nnc2SCC#N)cc1	i	-0.01
O=C(C1=C(O)C(=O)N(c2ncccn2)C1c1cccs1)c1ccco1 (stereo not given)	i	1.4
CN(C)S(=O)(=O)c1ccc(C(=O)OCC(=O)Nc2cccnc2Cl)cc1	i	0.03
Cc1ccc(NC(=O)NN2CCOCC2)cc1	i	0.01
CCC1(c2ccccc2)NC(=O)N(CC(=O)Nc2ccc(S(=O)(=O)Nc3ncccn3)cc2)C1=O (stereo not given)	i	0.5
COCCn1c(N)c(Sc2ccc(C)cc2)c(=O)[nH]c1=O	i	-0.43
Cc1cccc(N(CC(=O)N2CCN(c3ccccc3F)CC2)S(C)(=O)=O)c1	i	-0.61
C/C(=N\NC(=O)c1ccc(Cl)cc1)c1cccs1	i	1.1
N#C/C(=C\c1c(Oc2ccccc2F)nc2ccccn2c1=O)C(=O)NC1CCS(=O)(=O)C1 (stereo not given)	i	-1.6
COC(F)(C(=O)Nc1ccc2c(c1)C(=O)NC2=O)C(F)(F)F (stereo not given)	i	-3.4
C=C1CCN(c2ccc(C(=O)NCc3ccc(C)cc3)cc2[N+](=O)[O-])CC1	i	-0.83
CC(=O)Nc1ccc(N2C(=O)CSC2c2c(F)cccc2Cl)cc1 (stereo not given)	i	2.2
CCN(CC)CCn1c(NCc2ccccn2)nc2ccccc21	i	-3.1
O=C(c1ccc(Cl)c([N+](=O)[O-])c1)N(Cc1cccc(Cl)c1)C1CCS(=O)(=O)C1 (stereo not given)	i	-0.5
O=C(C1=C[C@H](c2ccccc2)C[C@H](OCc2ccc(CO)cc2)O1)N1CCN(Cc2ccccc2)CC1	i	0.03
c1ccc2[nH]c(SCc3cscn3)nc2c1	i	-0.01
CC(C)CCNC(=O)NC(=O)COC(=O)/C=C/c1cccc([N+](=O)[O-])c1	i	-1.6
Cc1ccc(C(=O)OCc2nnc(-c3ccccc3)o2)s1	i	1.8
Cn1c(CNC(=O)C(Cc2ccccc2)NC(=O)c2cccc(F)c2)cc(=O)n(C)c1=O (stereo not given)	i	1.1
CCC(CC)NC(=O)CSc1nnc(-c2c[nH]c3ccccc23)o1	i	0.93
Cc1c(N2C(=O)/C(=C\c3cccc4ccccc34)SC2=S)c(=O)n(-c2ccccc2)n1C	i	-0.52
COc1cc(NC(=O)c2cnc(N)s2)cc(C(=O)Nc2cccc(C(F)(F)F)c2)c1	i	0.79
O=C(Nc1ccccc1)c1cc2c(=O)c3ccccc3oc2nc1C(F)(F)F	i	-0.02
Cc1ccc(C(=O)N(CC(=O)NC2CCCC2)c2ccccc2C)s1	i	-2.2
CCN(CC)S(=O)(=O)c1cccc(-c2nnc(SC(C)C(N)=O)n2CCc2ccccc2)c1 (stereo not given)	i	-1.5
CCSc1ncc(Cl)c(C(=O)Nc2ccc(S(N)(=O)=O)cc2)n1	i	-2.3

For convenience, part of the list above:
SMILES	KCNQ2 inh	KCNQ2 inh baseline
O=C(NC(Cc1ccccc1)C(=O)O)c1ccccc1 (stereo not given)	i	-0.01
O=C1CCCCCN1CP(=O)(O)CCc1ccccc1	i	1.4
N#Cc1cnc(SCC(=O)NNC(=O)COc2cccc3ccccc23)nc1N	i	2

Next records:
SMILES	KCNQ2 inh	KCNQ2 inh baseline
CC1(C)C(=O)Nc2ccccc2N1C(=O)CN1C(=O)C(=O)N(C2CCCC2)C1=O	i	-0.11
CCOC(=O)N1CCC(N(C(=O)Nc2ccc(CC)cc2)C(C)CC)CC1 (stereo not given)	i	0.16
CCC(=O)Nc1ccc2c(c1)ncn2C	i	0.23
O=C(CCc1nc2ccccc2s1)N1CCN(S(=O)(=O)c2cccs2)CC1	i	0.35
CCOC(NC(=O)c1ccccc1)C(NC(=O)c1ccccc1)OCC (stereo not given)	i	1.8
Cc1cc(C)n(-c2nc(NCC(C)O)c3c4c(sc3n2)COC(C)(C)C4)n1 (stereo not given)	i	-1.1
COc1ccc(-c2nc(N)c(C#N)c(-c3cccnc3)c2C)cc1	i	2.8
O=C(NCCC1CCCC1)C1CCC(=O)N(CCCN2CCCC2=O)C1 (stereo not given)	i	-0.82
Clc1ccc2c(c1)c1cc(Cl)ccc1n2CN1CCOCC1	i	-0.08
Cc1ccc(NC(=S)NNC(=O)c2nn(C)c(C)c2Cl)cc1	i	-0.95
CCCCn1c(SCC(=O)NC2CCS(=O)(=O)C2)nnc1-c1ccc(OC)cc1 (stereo not given)	i	-0.66
COc1cc(Cl)c(C)cc1NC(=O)CSc1nnc(-c2ccccn2)n1Cc1ccco1	i	-1.3
N=c1c2c(-c3ccccc3)c(-c3ccccc3)n(Cc3ccco3)c2ncn1Cc1ccccc1	-5.9*	-0.53*
CCn1c(CNC(=O)c2cccc(C)c2)nc2ccccc21	i	0.37
CCc1cccc(C)c1NC(=O)CCNC(=O)c1cccc(C)c1	i	1

Laid out differently: results already given
SMILES,KCNQ2 inh,KCNQ2 inh baseline
CCn1c(CNC(=O)c2cccc(C)c2)nc2ccccc21,i,0.37
CCCCn1c(SCC(=O)NC2CCS(=O)(=O)C2)nnc1-c1ccc(OC)cc1 (stereo not given),i,-0.66

(cont.)
SMILES	KCNQ2 inh	KCNQ2 inh baseline
COc1ccc(Br)cc1C1Nc2cccc3cccc(c23)N1	i	-0.66
Cn1ncc(N=Cc2ccccc2O)c1C(=O)Nc1ccccc1	i	-1.3
Cc1ccc(-c2noc(CSc3nnnn3-c3ccccc3)n2)cc1	i	-0.81
CC(Oc1ccc(Cl)cc1)C(=O)OCC(=O)Nc1ncc(Cl)cc1Cl (stereo not given)	i	0.17
CCCN1Cc2cccc(C(=O)Nc3cc(OC)cc(OC)c3)c2C1=O	i	0.02
CCCCNC(=O)CS(=O)Cc1nc(-c2cccc(Cl)c2)oc1C (stereo not given)	i	0.05
COC(=O)c1c(-c2cccnc2)csc1NC(=O)c1ccc2c(c1)OCO2	i	3.4
CC(C)(C)CC(C)(C)NC(=O)CSCC(=O)Nc1ccc2ccccc2c1	i	0.47
NC(=O)C1(N2CCCCC2)CCN(C(=O)c2ccc(-n3cnnn3)cc2)CC1	i	-0.51
O=C(NCc1cccs1)c1nc2c(nnn2Cc2ccc(F)cc2)c(=O)[nH]1	i	-1.1
Cc1ccc(OCCSc2nnc(-c3cccs3)n2C)cc1	i	-1.5
O=C1CC(c2ccccc2F)c2c(c3ccccc3[nH]c2=O)O1 (stereo not given)	i	1.2
O=C(Cn1c(=O)c(=O)n(Cc2ccccc2)c2ccc(Cl)cc21)Nc1cc(F)ccc1F	i	-0.59
Cc1ccc(CNC(=O)c2nnc(Cc3ccc(Cl)cc3)o2)cc1	i	-0.38
COc1ccc(CCn2c(Br)nc3c2c(=O)[nH]c(=O)n3C)cc1	i	2.5
CCOC(=O)c1ccc(S(=O)(=O)N2CCN(C(=O)c3nn(C)c(=O)c4ccccc34)CC2)cc1	i	-0.6
CCC1CCCCN1C(=O)COC(=O)c1ccc(S(=O)(=O)N2CCOCC2)cc1 (stereo not given)	i	-0.43
CC(C)Oc1cccc(-c2cc(C(=O)N3CCN(c4ncccn4)CC3)c3ccccc3n2)c1	-7.2*	-1.7*
Cc1ccc(S(=O)(=O)Nc2ccc(S(=O)(=O)N3CCCC3)cc2)cc1	i	0.76
COc1ccccc1N1CCN(C(c2cccs2)C(C)NC(=O)c2ccncc2)CC1 (stereo not given)	i	-0.73
Cc1ccc(-c2cc(C(=O)OC3CCOC3=O)c3ccccc3n2)c(C)c1 (stereo not given)	i	-0.39
CC(C)c1nc2oc3c(NCC4CCCO4)ncnc3c2c2c1CCC2 (stereo not given)	i	0.9
NNC(=O)Cc1cn(-c2ncc(C(F)(F)F)cc2Cl)c2ccccc12	i	0.53

Source: PubChem (Johns Hopkins Ion Channel Center)

Only part of the results is shown; rates above refer to the full screens.
